Bioassay records as filed in PubChem BioAssay.
Sa growth 42C = S. aureus growth inhibition at 42 and 30 °C, primary screen, LtaS inhibitor project, RN4220, two temperatures | OD600, 20 h, 42 °C; hits give low values | relative growth, % (test concentration not listed) | 170,000 tested, 0.53% active;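 active = growth at 42 °C up to 50% and 20 or more points under that at 30 °C, or under 10% at both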;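 note: 300 nL library stock went into each well; scaled to the means of positive and negative controls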
GIV Gai3 FP = inhibitors of GIV peptide binding to Galpha-i3, primary screen, biochemical, fluorescence polarization, FITC-GIV GBA peptide, rat Galphai3 | percent of control (FP), % (test concentration not listed) | 210,000 tested, 0.42% active | AID 1224905, 2016 | 90 min; hits give low values; scaled: aluminum fluoride 0%, vehicle 100%;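 active = replicate mean at 85% of control or lower, very high polarization wells dropped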;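 note: wells of about 15 µL received 100 nL stock; the first replicate is given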
Target sequence (P08753 whole entry, looked up): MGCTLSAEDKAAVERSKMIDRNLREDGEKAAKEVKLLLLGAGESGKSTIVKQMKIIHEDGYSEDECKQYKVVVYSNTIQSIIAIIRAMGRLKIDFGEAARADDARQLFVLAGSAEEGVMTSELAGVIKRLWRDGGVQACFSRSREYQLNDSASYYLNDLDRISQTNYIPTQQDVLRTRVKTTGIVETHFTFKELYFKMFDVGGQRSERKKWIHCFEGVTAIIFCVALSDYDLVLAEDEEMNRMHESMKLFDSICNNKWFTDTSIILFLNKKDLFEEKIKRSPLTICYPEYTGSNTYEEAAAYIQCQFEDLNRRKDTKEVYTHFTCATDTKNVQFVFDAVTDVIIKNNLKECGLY
HCMV NEC inh = inhibitors of HCMV UL50-UL53 interaction, biochemical, HTRF; HCMV UL50-UL53 nuclear egress complex (human cytomegalovirus); 190,000 tested, 0.15% active; inhibition, % (no concentration beside the values); normalized percent inhibition;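 active = both replicates at 50% or more, plus weaker picks with an unusually low signal ratio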;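 note: stock transfer was 100 nL into about 20 µL; 0% = negative control wells and 100% = wells with untagged competitor protein; inactives centre near -12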
Sa growth 42C second temp = second read-out of Sa growth 42C, no call of its own (marks repeat the call); relative growth, %; measured here: growth at 30 °C;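 optical density after 20 h as mean of two plates; 100% = untreated growth and lower means inhibition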
Numbers without * were called inactive; / = not tested or not shown; & = joins results of further samples.

Molecule	Sa growth 42C	Sa growth 42C second temp	GIV Gai3 FP	HCMV NEC inh
O=C(CSc1nc2ccc(NC(=O)c3ccccc3C(=O)O)cc2s1)Nc1ccc(F)cc1	/	/	109	-7
CC1(C)C(c2ccccc2)=[N+]([O-])C(c2ccc(Br)cc2)N1O (stereo not given)	131	83	97	/
CC(=O)OC1CCN(c2cc(C(F)(F)F)nc3cc(Cl)cc(Cl)c23)CC1	83	86	104	-40
O=C1CSC(=O)N1CC(O)CCl (stereo not given)	94	92	/	-8
CCOc1cc(/C=C2\SC(N)=NC2=O)cc(Cl)c1OC(=O)c1ccc(OC)cc1	/	/	107	-20
CCOC(=O)C1=C(N)OC2=C(C(=O)CC(c3ccccc3)C2)C1c1ccccc1OC (stereo not given)	/	/	107	-3
CCN(Cc1ccccc1)C(=O)CSc1nc2ncccc2o1	103	86	104	-19
CN1CCN(c2nc(N3CCN(c4ccccc4)CC3)ncc2F)CC1	107	88	99	-1
CCN1CCN(C(=O)c2ccc3c(c2)NC(=O)c2ccccc2S3)CC1	95	96	98	-5
O=C(NC1CCS(=O)(=O)C1)/C(=C/c1ccco1)NC(=O)c1ccccc1 (stereo not given)	88	83	105	-47
CS(=O)(=O)c1ccc(C(=O)N2CCN(c3ccccc3)CC2)cc1	107	95	106	1
c1ccc(Nc2nc(Nc3ccccc3)nc(N3CCOCC3)n2)cc1	/	/	105	-25
COc1ccc(NC(=O)c2cc(-c3ccc4c(c3)OCO4)on2)c(OC)c1	105	84	101	-5
CCCc1nnc(NC(=O)Cc2coc3ccc(C(C)C)cc23)s1	100	95	103	2
CC(C)N1C(=O)S/C(=C/c2cc3c(cc2Cl)OCO3)C1=O	86	85	101	-23
CCC(C)NC(=O)c1ccc2c(c1)N(Cc1ccccc1F)C(=O)c1ccccc1S2=O (stereo not given)	103	88	103	-12
Cc1ccccc1-c1nnc(SCC(=O)Oc2c(C)cccc2C)o1	87	86	99	-26
CC(C)c1ccc(C(=O)Nc2ccccc2N2CCN(C)CC2)c(C(C)C)c1	99	93	/	9
CC(C)(C)OC(=O)/C(C#N)=C/c1ccc(C#N)cc1	89	88	105	-49
COc1ccccc1CNc1nc(-c2ccco2)nn1S(=O)(=O)c1ccc(C)cc1	110	95	102	-2
CN(C)c1ccc(C(CNC(=O)C2CCCCC2)N(C)C)cc1 (stereo not given)	/	/	102	4
CCN(CC)S(=O)(=O)N1CCC(C(=O)NCC2COc3ccccc3O2)CC1 (stereo not given)	96	93	111	5
COc1ccc(Cl)cc1NC(=O)N1CCN(c2ccc(=O)n(-c3ccc(F)cc3)n2)CC1	/	/	103	-22
COc1ccc(Nc2cc(N3CCCCC3)c3nonc3c2[N+](=O)[O-])cc1	/	/	112	-5
Cc1ccc(C)c(SCC(=O)NC(C)C(c2ccccc2)N2CCOCC2)c1 (stereo not given)	97	106	/	30
Cc1cc(COC(=O)CSc2cc(C)c3ccccc3n2)no1	90	81	/	-34
CCC(=O)N=c1sc2c(C)cc(C)cc2n1CC	100	89	99	-18
COC(=O)C(C)Oc1cc2oc(=O)cc(C)c2cc1Cl (stereo not given)	94	99	/	-9
COc1ccc(Cc2nn3c(-c4ccccc4Br)nnc3s2)cc1	86	77	107	/
O=C(O)c1cccc(OC(F)F)c1	90	100	/	16
Cc1ccc(C)n1-c1n[nH]c(=S)s1	92	80	104	-3
Cc1cc(C)nc(NC(c2ccc(C(C)C)cc2)c2cc(C)sc2NC(=O)c2ccccc2)n1 (stereo not given)	/	/	106	8
CCN1CCCC1CNC(=O)c1nnc(Cc2ccccc2OC)o1 (stereo not given)	79	88	100	-5
COCCCNC(=O)c1c(NC(=O)c2nc(S(C)(=O)=O)ncc2Cl)sc2c1CCCC2	112	84	106	-21
COc1ccc(N)cc1N=Cc1ccc(C#N)cc1	81	88	/	-14
Fc1ccccc1-c1ccc(SCc2nc(-c3ccccc3Br)no2)nn1	/	/	103	-23
Cc1ccc(C2=Nc3ccccc3N(CC(=O)Nc3cccc(F)c3)C(=O)C2)cc1C	115	107	101	/
O=C(Nc1ccc2c(c1)oc1ccc(S(=O)(=O)N3CCCC3)cc12)C1CC1	103	95	98	-7
COc1cccc(CNC(=O)c2cnn3c(C)c(Cc4c(C)cc(C)cc4C)c(C)nc23)c1	93	99	102	/
CCC(C)c1ccc(NC(=NCc2ccncc2)NC(=O)c2cccc(NC(C)=O)c2)cc1 (stereo not given)	/	/	101	21

Full records, quoted from the list.
Profile of Cc1cc(COC(=O)CSc2cc(C)c3ccccc3n2)no1 = Sa growth 42C = 90; Sa growth 42C second temp = 81; GIV Gai3 FP = /; HCMV NEC inh = -34
Profile of CCN(CC)S(=O)(=O)N1CCC(C(=O)NCC2COc3ccccc3O2)CC1 (stereo not given) = Sa growth 42C = 96; Sa growth 42C second temp = 93; GIV Gai3 FP = 111; HCMV NEC inh = 5

(next part)
Molecule	Sa growth 42C	Sa growth 42C second temp	GIV Gai3 FP	HCMV NEC inh
CCOc1ccc2nc(N3CCC(C(=O)Nc4ccc(OC)cc4)CC3)sc2c1	/	/	102	-30
O=C(Nc1ccccc1F)C1c2ccccc2C(=O)N2CCc3ccccc3C12 (stereo not given)	102	94	109	4
Cc1ccc(NC(=O)Cn2c3ccccc3c(=O)c3cc(C)ccc32)c(Br)c1	/	/	104	-11
Cc1ccc(-n2c(C)nnc2SCC(=O)N(c2ccccc2)C(C)C)cc1	81	95	/	-2
COc1ccc2nc(C3C(=O)c4cccnc4C3=O)ccc2c1 (stereo not given)	69	100	106	-55
O=C(c1cccc(S(=O)(=O)N2CCOCC2)c1)N1CCCCC1	103	118	93	8
O=C(CSc1nc2ccccc2s1)c1ccc(O)cc1O	88	88	/	16
CN(Cc1ccccc1)C(=O)C1CCN(S(=O)(=O)c2ccc3nc4c(c(C(=O)O)c3c2)CCCC4)CC1	99	85	105&101	-55&8
COC(=O)c1ccc(-c2ccco2)n1CC(=O)NC(C)C	98	82	99	/
O=C(Nc1cccc(Br)c1)C1CC(=O)N(C2CCCC2)C1 (stereo not given)	94	65	103	/
CCN(CC)CCCn1c(-c2ccccc2)cn2c3ccccc3nc12	114	77	102	/
CCCCc1nc2c(nnn2Cc2ccccc2)c(=O)[nH]1	112	65	103	-8
CC1c2cccn2CCN1S(=O)(=O)/C=C/c1ccc(Cl)cc1 (stereo not given)	92	95	/	-27
Cc1cccc(-c2cc(Nc3cccc(C(=O)NC4CCCCC4)c3)ncn2)c1	/	/	103	-21
C=CCN1C(=O)/C(=C/c2ccccc2)SC1=Nc1cccc([N+](=O)[O-])c1	/	/	105	-17
C=CCn1c(SCC(=O)c2ccc(NC(=O)CC)cc2)nnc1C1COc2ccccc2O1 (stereo not given)	93	96	/	0
Nc1ccc(-n2cnnn2)cc1	103	92	102	/
N#CCSc1nc2ccc(N)cc2s1	107	102	105	-13
Cc1nn(C)c2c1c(C(F)(F)F)cc(=O)n2CC(=O)Nc1ccc(F)cc1F	100	98	106	/
Cc1cc(C(=O)NN)c(C)n1-c1ccccc1	108	88	/	-14
COc1ccc(C(=S)N2CCCC2)cc1OC	90	85	106	2
COc1ccc(OC)c(S(=O)(=O)Nc2ccc(-c3ccc(N4CCCC4)nn3)cc2)c1	/	/	102	-86
N#Cc1c(C(F)(F)F)cc(-c2ccccc2)n(N)c1=O	112	92	105	-96
CC(C)c1ccc(NS(=O)(=O)c2ccc(N3C(=O)CCC3=O)cc2)cc1	97	89	100	-7
Cn1c(CO)nc2cc(N)ccc21	111	100	100	37
CC(C)(C)OC(=O)N1CCN(c2ncnc3nc[nH]c23)CC1	102	88	105	/
NS(=O)(=O)c1ccc(NC(=O)CSc2nc3ccccc3n2C2CCCCC2)cc1	108	105	/	-13
Fc1ccc(NC2=NCCC2)cc1	121	90	/	-10
O=C(NC1CC1)c1ccc(OCC2CCCO2)cc1 (stereo not given)	85	94	/	-2
CNC(=O)c1nsc(C(=O)O)c1N	/	/	95	-64
CCOC(=O)C1=C(c2ccccc2)Nc2ncnn2C1c1ccc(Cl)cc1 (stereo not given)	87	94	102	2
C=CCNC(=O)CSc1nc2scc(-c3ccco3)c2c(=O)n1CC=C	97	91	/	-21
CCN(c1ccccc1)c1cc(C)c2ccccc2n1	102	94	/	-10
O=C(NCCOc1ccccc1)C1=CC=CN2CCS(=O)(=O)N=C12	90	88	/	-26
COc1ccc(/C=c2\oc3cccc4c(OC)ccc(c2=O)c34)cc1	92	86	154	/
COc1cccc(CNC(=O)C(C)n2c3ccccc3c3cnn(C)c(=O)c32)c1 (stereo not given)	94	81	100	-7
Cc1ccc(N2C(=O)CC(C(=O)NC3(C)CCS(=O)(=O)C3)C2c2cccs2)cc1 (stereo not given)	84	88	/	-18
Cc1ccc2cc(C#N)c(N3CCCN(C(=O)C4CCCCC4)CC3)nc2c1	124	98	102	-19
Cc1nc(C(=O)O)c(C(=O)O)[nH]1	/	/	102	-27
O=C(Nc1ccc2c(c1)OC1(CCCC1)O2)C1CC1	86	82	102	-9
Cc1ccc(Cn2nnc3cc(C(=O)NCCc4c[nH]c5ccccc45)ccc32)cc1	/	/	107	-7
COC(=O)c1sc2c(c1N)CSc1ccc(Cl)cc1-2	88	113	110	13
Cc1cccc(Cc2cnc(NC(=O)C3=Cc4cc(C)ccc4OC=C3)s2)c1	/	/	105	-28
CCN(CC)CC(=O)Nc1ccc(-c2ccc(NC(=O)CN(CC)CC)cc2)cc1	81	88	107	6
CCSc1nn(CC(=O)Nc2ccc(C(=O)OC)cc2)c(N)c1S(=O)(=O)c1ccc(C)cc1	84	78	100&102	-2
O=C(NC1CCCCCCC1)c1ccc(Cl)c(NC2=NC3CS(=O)(=O)CC3S2)c1 (stereo not given)	110	93	98	6
COc1ccc(S(=O)(=O)/C=C/c2ccccc2)cc1	109	104	95	-2
CC1(C)CC(=O)C(C(O)c2ccccc2)C(C)(C)N1 (stereo not given)	94	86	/	-17
COc1ccc(NC(=O)CCCn2sc3ccccc3c2=O)cc1	91	91	100	-21
Cc1ccc(N(CC(=O)Nc2cc(C)ccc2C)S(=O)(=O)c2c(C)nn(C)c2C)cc1	115	87	111	0
COc1ccc(-c2cc(-c3cccc(OC)c3)nc3c(C(=O)Nc4ccc(F)cc4)cnn23)cc1	/	/	99	-32
O=C(CSc1nc2ccccc2o1)NCC12CC3CC(CC(C3)C1)C2	62	94	/	-10
COc1ccccc1N=Cc1sc2ccccc2c1O	107&97	90&61	-53*	-33&-24
COc1ccccc1CNC(=O)C1c2ccccc2C(=O)N2CCc3ccccc3C12 (stereo not given)	101	95	99	/
COc1ccc(/C=C2\SC(=O)NC2=S)cc1OC	11	2	136	-44
CCn1c(O)c(C=NCC(c2ccc(OC)cc2)N(C)C)c(=O)n(CC)c1=S (stereo not given)	110	105	/	4
O=C(Cc1ccc(NC(=O)N2CCCCc3ccccc32)cc1)NCc1ccccc1Br	107	88	98	/
Cc1ccc2nc(-c3ccc(NC(=O)COc4c(C)ccc(C)c4C)cc3)sc2c1	105	93	100	-21
CC(C)(C)c1ccc(C(=O)Oc2cccc(-n3cnnn3)c2)cc1	/	/	105	-17
COc1ccc(Nc2cc(N3CCCCC3)ncn2)cc1	71	89	105	-11

Marked active in GIV Gai3 FP, among the entries above:
Structure	Sa growth 42C second temp	GIV Gai3 FP
COc1ccccc1N=Cc1sc2ccccc2c1O	90&61	-53*

Other structures follow:
Molecule	Sa growth 42C	Sa growth 42C second temp	GIV Gai3 FP	HCMV NEC inh
Cc1nc2cc(O)c(O)cc2s1	84	49	106	-40
O=C(CN1C(=O)C2C3C=CC(C3)C2C1=O)OCC(=O)c1ccccc1 (stereo not given)	105	103	96	-11
CC1CCCCC1NC(=O)CSc1nnc(CC(=O)Nc2ccccc2Cl)n1C (stereo not given)	113	87	96	-17
CCOC(=O)N1CCN(c2cc(C(F)(F)F)nc3c(Cl)cccc23)CC1	96	86	102	-5
Cc1ccc(-c2onc(C)c2C)cc1S(=O)(=O)NCc1cccs1	124	99	107	/
Cc1cc(=O)oc(C)c1C(=O)NCc1ccccc1	105	95	112	-2

Part of the list above in order of length of the SMILES, falling.
Molecule	Sa growth 42C	Sa growth 42C second temp	GIV Gai3 FP	HCMV NEC inh
CCOC(=O)N1CCN(c2cc(C(F)(F)F)nc3c(Cl)cccc23)CC1	96	86	102	-5
CC(C)(C)c1ccc(C(=O)Oc2cccc(-n3cnnn3)c2)cc1	/	/	105	-17
Cc1ccc(-c2onc(C)c2C)cc1S(=O)(=O)NCc1cccs1	124	99	107	/
COc1ccc(Nc2cc(N3CCCCC3)ncn2)cc1	71	89	105	-11
Cc1nc2cc(O)c(O)cc2s1	84	49	106	-40
